miR-21 reporter: raises the signal of a miR-21 reporter | HeLa miR-21 FLuc reporter, luciferase, 48 h | Potency, µM (series often up to 38.3 µM), without a hit: at the highest dose reporter change, positive = more light | 340,000 tested, under 10 active | AID 2288; active = well fitted rising curve with a large enough effect; inconclusive = small, poorly fitted or top-dose-only effect; inactive = no such curve, though single readings can be large or run the other way;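 also: % of control where 0% means no effect; miR-21 action dims this reporter so a rising signal means less miR-21 action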
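HeLa cells endogenously expressing miR-21, stably carrying CMV-driven firefly luciferase with a downstream miR-21 binding site, 2000 cells/well. Titrations up to approximately 40 uM, 48 hours; luciferase luminescence read.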
GLA inh pH 4.5: alpha-galactosidase A (human) inhibition, pH 4.5; P06280; purified enzyme, 4-MU-alpha-Gal fluorescence, pH 4.5; activity change, negative = inhibition, % at 105 µM; 230,000 tested, under 10 active; inconclusive = small, poorly fitted or top-dose-only inhibition, or a rising curve; inactive = flat fitted curve, though single readings scatter; no compound was filed as active;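 also: 0% = full activity with enzyme and -100% = basal without enzyme; dose as in the result columns while the protocol names 77 µM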
Target sequence (P06280 whole entry, looked up): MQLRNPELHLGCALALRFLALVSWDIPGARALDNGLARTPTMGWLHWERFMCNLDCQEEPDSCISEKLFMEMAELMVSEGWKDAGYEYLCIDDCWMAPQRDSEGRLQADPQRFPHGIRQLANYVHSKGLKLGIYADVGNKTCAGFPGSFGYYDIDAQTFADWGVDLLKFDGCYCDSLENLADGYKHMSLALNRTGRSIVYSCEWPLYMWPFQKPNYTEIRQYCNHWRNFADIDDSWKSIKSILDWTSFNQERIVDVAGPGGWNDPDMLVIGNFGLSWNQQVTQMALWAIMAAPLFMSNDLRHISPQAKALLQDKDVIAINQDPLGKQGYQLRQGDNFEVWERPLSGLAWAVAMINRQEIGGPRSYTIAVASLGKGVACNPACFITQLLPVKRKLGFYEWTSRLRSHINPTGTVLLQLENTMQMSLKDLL
Rango complex inh: Rango-importin beta binding inhibition; Q14974; Rango CFP/YFP FRET sensor + importin beta, 45 min; Potency, µM (titrated, usually from 92.2 µM), for the others: at the top dose inhibition of complex formation; 340,000 compounds, 0.031% hits; AID 540263; active = rising FRET ratio curve, often small or poorly fitted; inconclusive = mostly compound fluorescence or quenching in the first reads; inactive = flat curves in all reads;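 also: potency is read from the fitted curve at half-maximal effect; 0% = DMSO wells and 100% = buffer wells lacking importin beta; nearly all actives have a fitted effect of over 15% in size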
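Inhibition scored from the CFP 486 nm/YFP 530 nm FRET ratio 45 min after adding 0.125 microM importin beta to 50 nM Rango biosensor preincubated 5 min with compound (room temperature, PBS with DTT, Tween-20, BSA). No-importin wells as positive control.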
Rango dissoc inh: inhibition of RanGTP-driven Rango-importin beta dissociation. O95149+P62826. Biochemical FRET Rango-importin beta, RanGTP-induced dissociation. Potency, µM (doses to about 46.1 µM), without a hit: top-dose activity change, negative = inhibition. 340,000 compounds, 0.071% hits; active means falling FRET ratio curve, often poorly fitted, with flat reads before Ran was added; inconclusive means other falling curves, or compound fluorescence or quenching; inactive means flat or rising ratio curve;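 also: potency is read from the fitted curve at half-maximal effect; % of control where 0% means no effect; nearly all actives have a fitted effect of over 45% in size; -100% = wells without RanGTP and RCC1; the record marks most hits as doubtful in a second field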
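Compounds sat 5 min at room temperature with 0.1 uM Rango biosensor plus 0.25 uM importin beta, then FRET pre-read. RanGTP-RCC1 (0.6 uM Ran, 2mM GTP, 0.2 uM RCC1) added for 45 min, and the CFP/YFP post-read measured blocked complex dissociation.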
Numbers without * were called inactive; ? = inconclusive; · = not tested or not shown; [ ] = dose if it differs, or a comment.

structure | GLA inh pH 4.5 | Rango complex inh | Rango dissoc inh | miR-21 reporter
CSc1ncc(OCc2ccccc2)c(=O)[nH]1 | 3 | -2.8% | -7% | -11%
Cc1ccccc1C(=O)N1CCC(C(=O)Nc2cccc(S(=O)(=O)N3CCCCC3)c2)CC1 | · | 0.2% | -2% | ·
Cc1cc(C(=O)Nc2ncn(Cc3ccc(F)cc3)n2)ccc1[N+](=O)[O-] | 6 | -1.6% | 4% | -3%
C=CCNC(=O)CN1N=C(c2ccc(C)cc2)CCC1=O | · | -4.4% | -2% | -1%
O=C(/C=C\c1cccs1)c1c(O)ccc2ccc(=O)oc12 | -14 | ? | ? | 4%
O=C(CSc1nc(-c2cccs2)cc(C(F)(F)F)n1)Nc1cc(OCC(F)(F)C(F)F)cc([N+](=O)[O-])c1 | 4 | -0.5% | -5% | -9%
COC(C[C@@H]1O[C@H]1[C@@H](O)COCc1ccccc1)OC | 8 | 0.8% | -2% | -2%
Cn1cnnc1SCC(=O)NC(=O)NCc1ccccc1 | · | 0.3% | 17% | ·
COc1cc2cc(C(=O)Nc3ccccc3)c(N)nc2cc1OC | 8 | ? | ? | -9%
Cc1c(C(=O)Nc2cccnc2)oc2ccc(Br)cc12 | · | 0.2% | -5% | -44%
O=C(/C=C/c1ccco1)NC(=S)Nc1nc(-c2ccc(Cl)cc2)cs1 | 2 | -1.2% | 0% | -1%
Oc1ccccc1-c1nnc(SCCN2CCOCC2)n1Cc1ccccc1 | 0 | 1.9% | 0% | 26%
O=S(=O)(NC1CC1)c1ccc(Cl)cc1 | · | -0.7% | -6% | -2%
NC(=O)Cn1nc([N+](=O)[O-])nc1Oc1ccccc1F | -16 | -5.5% | -16% | 0%
Cc1ccc(C(=O)Nc2ccc(N3CCN(C(=O)c4ccco4)CC3)cc2)cc1 | 5 | -5.0% | -18% | 5%
Cc1csc(NC(=O)/C=C/c2ccc(C)o2)n1 | -3 | -4.2% | 10% | -64%
CNC(=S)NNC(=O)COc1ccc(C)c(C)c1 | 3 | -0.3% | -10% | -31%
Cc1ccccc1-n1c(SCc2cccc(F)c2)nc2[nH]ncc2c1=O | -17 | -0.1% | -3% | -4%
Cc1ccc(C)c(/C=N/Nc2nc3ccccc3c(=O)n2O)c1 | -2 | ? | -2% | -43%
CCN(CCn1cccn1)C(=O)c1cccc(OC2CCN(S(C)(=O)=O)CC2)c1 | · | -0.2% | 1% | -5%
CCN(CC)C(=O)Cn1c(=O)n(-c2ccccc2)c(=O)c2sccc21 | 6[21.1 µM] | 0.1% | 19% | 3%
Cc1cc(=O)c(C(=O)c2ccccc2)c(C)o1 | · | 3.9% | 7% | ·
COc1ccc(-c2nc(C)ncc2N=Nc2ccccc2)cc1 | 6 | 3.6% | -6% | -14%
Cc1c(Br)cc(C(=O)N2CCCC2)c(C)c1C | 1 | -6.3% | 0% | -11%
COC(=O)[C@H](CCSC)NC(=O)Cn1ccc(N)nc1=O | · | -0.9% | ? | ·
CN(C(=O)c1cccc(NC(=O)Cc2ccc(NC(=O)C3CCN(C(=O)C4CC4)CC3)cc2)c1)C1CCC1 | · | 8.3% | -3% | ·
O=C(CCc1nc2ccccc2s1)NC1CCOC1=O (centres undefined) | 4 | 2.3% | 9% | -9%
CC(=O)NS(=O)(=O)c1ccc(NC(=O)c2ccc3c(c2)C(=O)N(CCC(C)C)C3=O)cc1 | 6 | -2.3% | 6% | -1%
CCN1CCN(C(=O)NC2CCCCC2)CC1 | · | 3.4% | -6% | -4%
Nc1c(Cl)cc2c(c1Br)Cc1ccccc1-2 | · | -0.9% | 2% | ·

Filtered by structure: those above with a halogen (9)
structure | GLA inh pH 4.5 | Rango complex inh | Rango dissoc inh | miR-21 reporter
Cc1cc(C(=O)Nc2ncn(Cc3ccc(F)cc3)n2)ccc1[N+](=O)[O-] | 6 | -1.6% | 4% | -3%
O=C(CSc1nc(-c2cccs2)cc(C(F)(F)F)n1)Nc1cc(OCC(F)(F)C(F)F)cc([N+](=O)[O-])c1 | 4 | -0.5% | -5% | -9%
Cc1c(C(=O)Nc2cccnc2)oc2ccc(Br)cc12 | · | 0.2% | -5% | -44%
O=C(/C=C/c1ccco1)NC(=S)Nc1nc(-c2ccc(Cl)cc2)cs1 | 2 | -1.2% | 0% | -1%
O=S(=O)(NC1CC1)c1ccc(Cl)cc1 | · | -0.7% | -6% | -2%
NC(=O)Cn1nc([N+](=O)[O-])nc1Oc1ccccc1F | -16 | -5.5% | -16% | 0%
Cc1ccccc1-n1c(SCc2cccc(F)c2)nc2[nH]ncc2c1=O | -17 | -0.1% | -3% | -4%
Cc1c(Br)cc(C(=O)N2CCCC2)c(C)c1C | 1 | -6.3% | 0% | -11%
Nc1c(Cl)cc2c(c1Br)Cc1ccccc1-2 | · | -0.9% | 2% | ·

The list goes on.
structure | GLA inh pH 4.5 | Rango complex inh | Rango dissoc inh | miR-21 reporter
COc1ccc(S(=O)(=O)N2CCOCC2)cc1NC(=O)COc1ccc(C)cc1 | · | -2.1% | -14% | ·
O=C(NCCC1=CCCCC1)c1c(O)nc2ccccn2c1=O | · | -2.6% | 11% | -18%
CS(=O)(=O)c1cccc(C(=O)Oc2ccccc2)c1 | 6 | -2.7% | -8% | 0%
C=CCC1(CC=C)CCCN1C(=O)C1CCC(=O)N(CCc2ccc(OC)cc2)C1 (centres undefined) | · | -1.9% | 1% | -44%
Cc1cc(C)cc(NC(=S)NCc2cccn2C)c1 | -15 | 4.1% | -6% | -5%
COCCCN(C(=S)Nc1cc(Cl)cc(Cl)c1)C(C)c1ccccn1 (centres undefined) | 6 | 0.4% | 4% | 29%
CC(=O)N1c2ccccc2Oc2cc3ccccc3cc21 | 6 | 0.2% | 1% | -82%
Cc1ccc(-c2cc(NC(=O)CCl)n(-c3ccccc3)n2)cc1 | -6 | 4.6% | 3% | ?
CCOC(=O)N1CCN(C(=O)C2CCN(C(=O)c3ccccc3C)CC2)CC1 | · | 0.6% | -13% | ·
CC(OC(=O)c1c(F)cccc1F)C(=O)NCCC1=CCCCC1 (centres undefined) | · | 0.6% | -6% | ·
Cc1cccc(NCCNc2cccc(C)c2)c1 | 5 | -2.4% | -5% | -30%
Cc1nc(-c2ccccc2)cc(=O)[nH]1 | 0 | 0.1% | -3% | -8%
CC1CN(CC(=O)N2CCc3[nH]c4ccccc4c3C2)CC(C)O1 (centres undefined) | 0 | ? | ? | -3%
Cc1ccc(C(=O)NNC(=O)c2ccc(S(=O)(=O)N(C)c3ccccc3)cc2)cc1 | · | -1.0% | 0% | ·
O=C(Oc1ccc(-c2nnco2)cc1)N(c1ccccc1)c1ccccc1 | -7 | 0.0% | 1% | 0%
CNCc1c(OCc2ccccc2)ccc2ccccc12 | · | 0.0% | -1% | 8%
CN(C(=O)c1cc2c(=O)n3ccccc3nc2s1)C1CCCCC1 | · | ? | -2% | ·
Cc1cc(NC(=O)CSc2nc3ccsc3c(=O)n2CCCC(=O)NCCc2ccccc2)no1 | 2[21.1 µM] | ? | -12% | -2%
COc1ccc(CCN=CC2=C(O)CC(C)(C)CC2=O)cc1 | · | ? | -2% | -3%
CCOc1ccc(N=C2SC(C(=O)Nc3ccccc3C#N)C(N)=C2C(=O)Nc2ccc(Cl)cc2)cc1 (centres undefined) | -13 | -3.7% | -16% | -1%
Cc1ccc(-c2nnn(CC(=O)N(CC(=O)NC3CCCC3)c3cnc4ccccc4c3)n2)o1 | 6 | -6.3% | -11% | -1%
N#CCCN(C(=O)COC(=O)CCC(=O)c1ccc(F)cc1)c1ccccc1 | · | ? | ? | ·
CCOC(=O)Cn1cnc2scc(-c3ccccc3)c2c1=O | · | -1.1% | 17% | 2%
CCn1ncc(S(=O)(=O)N2CCN(c3cccc(OC)c3)CC2)c1C | · | -1.5% | 18% | 0%
O=C(Cc1c(F)cccc1Cl)NNC(=O)Nc1ccc2c(c1)OCO2 | · | -2.7% | 9% | -6%
COCCSc1nnc(NC(=O)C(C)(C)C)s1 | 13 | -0.1% | 1% | -46%
COc1ccc(NC(=O)c2cn3c(nc4ccccc43)c(C#N)c2C)cc1 | 3 | ? | ? | -4%
C/C(=C(\C#N)C(=O)NCCCN1CCOCC1)N(C)C | 11 | 0.5% | -8% | -5%
CCN1CCN(c2nc(Nc3cccc(C)c3)nc(N)c2[N+](=O)[O-])CC1 | -5 | -2.5% | -9% | 0%
CCN1CCN(C(c2cccs2)C(C)NC(=O)c2cccnc2)CC1 (centres undefined) | -5 | -0.6% | 28% | -5%

structure | GLA inh pH 4.5 | Rango complex inh | Rango dissoc inh | miR-21 reporter
COc1cc(NC(=S)NC(=O)c2ccc(C)cc2C)ccc1NC(=O)c1cccs1 | 6 | 0.2% | 1% | -5%
CCCCn1c(SCc2cc(=O)n3ccsc3n2)nc2cc(C(=O)OC)ccc2c1=O | 1 | · | · | -2%
Cc1cc(Br)ccc1S(=O)(=O)NCc1ccccc1 | · | 0.1% | 10% | 2%
Cn1c2ccccc2c2nnc(SCC(=O)NC3CC3)nc21 | · | 0.0% | -3% | -1%
CC(C)(C)OC(=O)C[C@@H]1C/C=C\C[C@@H](CC(=O)N[C@@H](CO)Cc2ccccc2)C(=O)NCCOC1=O | · | -4.4% | 16% | ·
O=C(O)C1CCCCC1C(=O)Nc1ccc(S(=O)(=O)N2CCCC2)cc1 (centres undefined) | · | -0.3% | -16% | 2%
CCS(=O)(=O)CCSC1OC(COC(C)=O)C(OC(C)=O)C(OC(C)=O)C1OC(C)=O (centres undefined) | 12 | -1.3% | -1% | -1%
Cc1cc2nc3n(c2cc1C)CC1CC(C(=O)NCc2ccccc2)N(C)C31 (centres undefined) | · | -0.2% | -19% | ·
CCOC(=O)C1(C)NC(c2ccc(OC)c(OC)c2)C2C(=O)N(CC)C(=O)C21 (centres undefined) | 3 | -0.8% | -8% | -7%
Nc1c(Cl)ncnc1N/N=C/c1ccc(O)cc1 | -4 | 0.5% | 0% | -60%
COc1ccc(C2=NN(C(=O)c3ccco3)C(c3ccco3)C2)cc1OC (centres undefined) | · | -0.9% | 7% | -8%
CCOc1cc(/C=C/c2nc3ccccc3s2)ccc1OCC(=O)N1CCOCC1 | 9 | -0.2% | 8% | 28%
CCc1cc(=O)oc2c(C)c(OC(C)C(=O)NCCCN3CCOCC3)ccc12 (centres undefined) | · | 0.7% | -3% | 0%
COc1ccc(CNc2ccc(-c3ccccc3OC)nn2)cc1 | -3 | -1.5% | 0% | -32%
CC(NC(=O)CCCn1cc([N+](=O)[O-])cn1)c1ccccc1 (centres undefined) | -2 | 7.5% | 33% | 1%
O=S(=O)(c1cccc(Cn2nnc(-c3ccc(F)cc3)n2)c1)N1CCOCC1 | · | 2.2% | 5% | 12%
CC(C)CC(OC(=O)c1nsc(Cl)c1Cl)C(=O)NC1CCCC1 (centres undefined) | · | -4.6% | -9% | -1%
Cn1c(=O)c2c(nc(CN3CCOCC3)n2CCc2ccccc2)n(C)c1=O | 11 | 3.7% | -4% | -9%
COc1ccc(N/C(C)=C/C(=S)Nc2ccccc2)cc1 | -10 | -0.8% | -12% | -46%
Cc1csc(SCC(=O)Nc2cc(C(N)=O)cc(C(N)=O)c2)n1 | · | 0.6% | 0% | ·
Cc1ccc(/C=C/C(=O)NCc2ccc(S(N)(=O)=O)cc2)o1 | 16 | ? | -22% | -1%
COC(=O)CSc1nc(-c2ccccc2)c2c(c1C#N)CCCC2 | -14 | 3.1% | 23% | -4%
CC1(c2ccc3c(c2)OCO3)NC(=O)N(CC(=O)Nc2ccccc2[N+](=O)[O-])C1=O (centres undefined) | · | ? | -15% | ·
CC1=C(C(=O)Nc2ccccc2)C(c2ccco2)n2ncnc2N1 (centres undefined) | -4 | 3.8% | 8% | -1%

Screening results (PubChem BioAssay)

Not all compounds are listed, so the mix of outcomes need not match the whole.
